Vaccinia Venus: inhibitors of vaccinia virus (Venus reporter); Vaccinia virus Venus reporter expression, fluorescence; Potency, µM (highest dose often 36.5 µM), inactives show at the highest dose activity change, negative = inhibition, hits mostly inhibitors; 0.46% of 330,000 active; active means well fitted inhibition curve with a large enough effect; inconclusive means small, poorly fitted or top-dose-only effect; inactive means no such curve, though single readings can be large or run the other way; tested in A549 cells; note: nearly all actives have a fitted effect of over 30% in size; inactives centre near -10
Vaccinia mCherry: vaccinia inhibition (mCherry reporter); Vaccinia virus mCherry reporter infection, fluorescence; about a quarter of the inactives have no number; 0.63% of 310,000 active; AID 720579; Potency, µM (highest dose often 36.5 µM), for inactives: top-dose activity change, negative = inhibition, actives largely listed as inhibitors; active = well fitted inhibition curve with a large enough effect; inconclusive = small, poorly fitted or top-dose-only effect; inactive = no such curve, though single readings can be large or run the other way; tested in A549 cells; note: nearly all actives have a fitted effect of over 35% in size; inactives centre near -10
Active calls of the source: *; i = inactive; ? = inconclusive; / = not tested or not shown; & = joins results of further samples; [ ] = dose if it differs, or a comment. % is set by controls: 0 for no effect and ±100 for the full control effect; potency is the fitted concentration of half-maximal effect.

molecule | Vaccinia Venus | Vaccinia mCherry
O=[N+]([O-])c1ccc(Nc2nc(NCCN3CCOCC3)nc(Nc3ccc(I)cc3)n2)cc1 | ? | ?
OCC[n+]1ccc(/C=C/c2c[nH]c3ccccc23)cc1 | -11% | -16%
CCCNC(=O)N1[C@H]2CC[C@@H]1C(C(=O)OC)=C(c1cc3ccccc3o1)C2 | -21% | i
O=C(COC(=O)C1CSC2(c3ccc(F)cc3)CCC(=O)N12)NC(=O)NC1CCCC1 (configuration not stated) | 0% | 0%
Cc1cccc(C(=O)NNC(=O)/C=C/C(=O)O)c1 | 9% | i
CCCC(=O)Nc1cccc(NC(=O)Cc2ccc(Cl)cc2)c1 | -11% | -3%
CCCC(c1nnnn1C1CCCC1)N1CCN(c2ccccc2F)CC1 (configuration not stated) | -5% | -10%
COc1ccc(C2(C(=O)NCCCN(C)C)CCOCC2)cc1 | -3% | -14%
CCOC(=O)c1c(NC(=O)COc2ccccc2OCC)sc2c1CC(C)(C)NC2(C)C | ? | ?
CC(=O)Nc1ccc(C(=O)N/N=C/c2ccncc2)cc1 | 6% | 3%
Cc1ccc2c(c1)C1CN(C)CCC1N2C(=O)c1cccc(S(=O)(=O)N2CC(C)CC(C)C2)c1 (configuration not stated) | -15% | -19%
N#C/C(=C\c1ccc(-c2cccc(C(F)(F)F)c2)o1)C(=O)Nn1cnnc1 | -6% | -27%
O=C(O)c1ccc(-n2c(-c3ccccc3)n[nH]c2=S)cc1 | -7% | -12%
COc1ccc(NS(=O)(=O)c2cc(NC(=O)/C=C/c3cccs3)ccc2N2CCOCC2)cc1 | -17% | -28%
CCc1ccccc1NC(=S)N(Cc1ccco1)C(C)c1cccs1 (configuration not stated) | 0% | -12%

molecule | Vaccinia Venus | Vaccinia mCherry
O=C(O)/C=C/c1ccc([N+](=O)[O-])o1 | 4% | i
Oc1c(C(c2ccc(F)cc2)N2CCOCC2)sc2nc(-c3ccco3)nn12 (configuration not stated) | -74% | ?
COc1ccc(CNS(=O)(=O)CCNC(=O)c2ccc3c(c2)OCO3)cc1 | -3% | -6%
COC(=O)CC/C(O)=C1\C(=O)CC(C)(C)CC1=NCc1nc2ccccc2[nH]1 | -1% | -17%
COc1cccc(-c2cnc(C(O)c3cc(C)c(OC)c(C)c3)[nH]2)c1 (configuration not stated) | 0% | -24%
COCCCC1CCN(C(=O)CCc2nnc(CCCCc3ccccc3)o2)CC1 | -16% | -4%
COc1ccc(NC(=O)c2cnc(SCC(=O)NCCc3ccccc3)n(C)c2=O)cc1 | 2% | -13%
COc1ccccc1N(CC(=O)NCc1ccc(F)cc1)C(=O)CCC(=O)Nc1nccs1 | -18% | -1%
CN(CC(=O)NC1CCN(Cc2ccccc2)CC1)S(=O)(=O)c1ccc(Br)s1 | ? | -28%
Cc1ccc(NC(=O)C2CCCN(S(=O)(=O)c3c(C)noc3C)C2)nc1 (configuration not stated) | -4% | -14%
Cc1cccc2cc(/C=N/NC(=O)[C@H]3C[C@@H]3c3ccccc3)c(Cl)nc12 | -21% | -15%
COCCCNC(=O)c1ccc2nc(Cc3ccc(OC)cc3)oc2c1 | -15%&-11% | -16%
Cc1ccc(S(=O)(=O)NC(=O)COc2ccccc2C(N)=O)cc1 | -5% | -25%
COc1ccccc1C(=O)NC(=O)COC(=O)C1CCC1 | -9% | i
O=C(c1ccc(S(=O)(=O)Nc2ccccc2F)cc1)N1CCN(c2ccccn2)CC1 | -14% | -3%

molecule | Vaccinia Venus | Vaccinia mCherry
Cc1c(C(=O)N2CCCC(C)C2)sc2ncnc(N3CCCCC3C)c12 (configuration not stated) | -18% | i
COc1cc(Cl)ccc1OC1(C)CCN(Cc2ccc(-c3ccccn3)cc2)C1 (configuration not stated) | -5% | i
CC1CCCN(CC(=O)Nc2cccc([N+](=O)[O-])c2)C1 (configuration not stated) | -11% | -11%
C(=C\c1ccccc1)/CSc1nnc(-c2cccnc2)o1 | -9% | -13%
Cc1nn(C)c(C(=O)N/N=C/c2cccc3ccccc23)c1Cl | -14% | -1%
O=C(CSc1ccc2c(c1)OCCO2)Nc1cccnc1 | -10% | i
CCc1nnc(NC(=O)CN2C(=O)c3ccccc3S2(=O)=O)s1 | -16% | -18%
Cc1cccc(-n2ncc3c(NCc4cccnc4)ncnc32)c1 | ? | -12%
COc1ccc(Cc2nc3ccc(C(=O)NC(C)c4cnn(C)c4)cc3o2)cc1 (configuration not stated) | -10% | -12%
CCC(C)NC(=O)Nc1ccc(C)cc1C (configuration not stated) | -8% | ?
O=C1NN(c2ccccc2)C(=O)C2C1C1C=CC2C12CC2 (configuration not stated) | -10% | -6%
CCOCCCN1CC(C(=O)NCCc2ccccc2)CC1=O (configuration not stated) | -8% | -11%
CNC(=O)CSc1nc2nc(C)cc(C)n2n1 | -15% | -17%
Cc1ccc(C(=O)Nc2ccccc2-c2ccccc2)cc1S(=O)(=O)Nc1ccccc1 | ? | ?
Cc1ccc(OCC(=O)OCc2nc3scc(-c4ccccc4)c3c(=O)[nH]2)cc1C | -14% | i

3 entries from above, with values under each structure:
Value order: Vaccinia Venus	Vaccinia mCherry
> Cc1ccc(OCC(=O)OCc2nc3scc(-c4ccccc4)c3c(=O)[nH]2)cc1C
  -14%	i
> Cc1nn(C)c(C(=O)N/N=C/c2cccc3ccccc23)c1Cl
  -14%	-1%
> CCC(C)NC(=O)Nc1ccc(C)cc1C (configuration not stated)
  -8%	?

Next part:
molecule | Vaccinia Venus | Vaccinia mCherry
CC(C)C(=O)N1CCC2(CC1)Oc1ccc(Cl)cc1C(=O)C21CC(c2cccnc2)=NO1 (configuration not stated) | -15% | -5%
COC(=O)c1ccc(CNC(=O)c2cc3ccccc3oc2=O)cc1 | -19% | i
COC[C@@H]1CCCN1c1ccc2c(c1)O[C@@H](COCc1ccccc1)CN([C@H](C)c1ccccc1)S2(=O)=O | 3% | 1%
C=CCn1cnc2c(nnn2-c2ccc(OC)c(OC)c2)c1=O | -11% | i
CCCCC(=O)NC(=S)Nc1cccc(C(=O)O)c1 | -4% | -3%
CCOC(=O)C1CCCN(C(=O)C2CCN(S(=O)(=O)c3cnc[nH]3)CC2)C1 (configuration not stated) | 9% | -2%
CCCCCC(=O)N/N=C/c1ccc(N(C)C)cc1 | -15% | i
O=C(O)CC/C(=C\c1ccc(Cl)c([N+](=O)[O-])c1)c1nc2ccccc2s1 | -7% | -9%
CCOC(=O)c1c(CSC(=N)N)n(C)c2cc(Br)c(OC(C)=O)cc12 | -17% | -20%
CC(=O)N1c2ccc(S(=O)(=O)N(C)CC(=O)NC(C)c3ccccc3)cc2CC1C (configuration not stated) | -9% | i
COc1ccc2[nH]c3c(N4CCC(O)(c5cccc(C(F)(F)F)c5)CC4)ncnc3c2c1 | ? | i
CN(C)c1ccc(/C=C/c2ccnc3c2ccc2c(/C=C/c4ccc(N(C)C)cc4)ccnc23)cc1 | 2% | i
CN1CCN(Cc2nc3ccccc3c(=O)n2Cc2nc(-c3ccccc3F)cs2)CC1 | -9% | -14%
CCOc1ccc(N(CC)S(=O)(=O)N2CCCC(C(=O)Nc3cc(Cl)ccc3OC)C2)cc1 (configuration not stated) | -23% | -22%
OC[C@@H]1CN(Cc2ccc3c(c2)OCO3)C[C@H](n2cnc3c(NC4CC4)ncnc32)O1 | -6% | -9%

molecule | Vaccinia Venus | Vaccinia mCherry
CCOCCc1nn2c(=O)cc(COC(=O)c3ccccc3NC(=O)c3cccs3)nc2s1 | -5% | -2%
CCOC(=O)c1c(NC(=S)Nc2ccc(OC)cc2)sc2c1CCCCC2 | -12% | -9%
CCC(C)NC(=O)CSc1nc2cc3c(cc2c(=O)n1Cc1ccco1)OCO3 (configuration not stated) | 6% | 3%
S=C1NCCOCCOCCOCCOCCN1 | -6% | -10%
CCOc1ccc(NC(=O)c2c(Nc3ccccc3C)sc(C(=O)c3ccc(Cl)cc3)c2N)cc1 | ? | ?
CCC(=O)Nc1cccc(C2=NOC3(C2)C[C@H](C(N)=O)N(C(=O)Cc2ccc([N+](=O)[O-])cc2)C3)c1 (some centres not stated) | 6% | -25%
COc1cc(C)c(Cl)cc1S(=O)(=O)n1ccnc1C | -16% | -19%
CSc1ncccc1C(=O)N1CCCC(Nc2ccc(F)c(F)c2)C1 (configuration not stated) | -17% | -16%
Cc1ccc(OCCCOc2cccc3cccnc23)cc1C | 11% | /
COC(=O)C1=C(c2ccccc2)C[C@@H]2CC[C@H]1N2C(=O)NCc1ccc(C(F)(F)F)cc1 | -26% | -5%
O=C(Nc1ccc2ccccc2c1)c1ccc(Br)o1 | 5% | ?
Cc1nnc(-c2cnn(C)c2N)n1CCCN(C)C | -10% | -14%
CC(C)c1ccc(C2c3c(oc4ccc(Cl)cc4c3=O)C(=O)N2CCCN2CCOCC2)cc1 (configuration not stated) | -20% | -25%
CCc1ccc(NC(=O)CCc2c(C)nn(-c3ccc(N4CCCC4)nn3)c2C)cc1 | -14% | 0%
Cc1nc(-c2ccc(NC(=O)Cc3ccccc3)cc2)cs1 | -10% | i

molecule | Vaccinia Venus | Vaccinia mCherry
COc1ccc(NC(=O)CSc2nnc(-c3cccnc3)o2)c(OC)c1 | -9% | -14%
COc1cc(C(=O)NC2CC(C)(C)NC(C)(C)C2)cc(OC)c1OC | -10% | i
O=C(NN1C(=O)/C(=C\c2cccnc2)SC1=S)c1ccco1 | 1% | 0%
CCc1ccc(-c2cc(C)no2)cc1S(=O)(=O)N1CCOc2ccccc21 | -12% | i
CCOC(=O)c1c(C)[nH]c(C2=NNC(=Nc3ccc(OCC)cc3)SC2)c1C | -22% | -10%
Cc1ccc([C@@H]2CC=C(C(=O)O)[C@H](c3cccc(Cl)c3)N2S(=O)(=O)c2ccc(C)cc2)cc1 | -1% | i
COc1cccc(CNC(=O)c2ccc(-n3c(C)cc4c3CCC(C)C4)cc2)c1 (configuration not stated) | -14% | i
O=C(/C(=C(\[O-])c1ccccc1)[n+]1ccc2ccccc2c1)c1ccc([N+](=O)[O-])cc1 | 10% | i
COCc1c(C(=O)OCc2c(C)noc2C)oc2ccccc12 | -2% | 4%
Cc1cc(C)c(CSc2ncc(-c3ccc([N+](=O)[O-])cc3)[nH]2)c(C)c1 | -29% | 0%
Cc1cnc(CNc2ccnc(-c3ccc(N(C)C)cc3)n2)cn1 | 5% | 11%
COc1ccc2cc(CN(CCCN3CCOCC3)Cc3nnnn3C3CCCCC3)c(=O)[nH]c2c1 | -6% | -3%
Cc1cc(F)ccc1C(O)c1ncc(-c2ccccc2F)[nH]1 (configuration not stated) | -15% | 5%
CCCCCOc1ccc(CSc2n[nH]c(C)n2)cc1 | 1% | -4%
CCOC(=O)Nc1cc(Br)c2c(c1)OCCO2 | 0% | -5%

molecule | Vaccinia Venus | Vaccinia mCherry
NC(=O)C1CCN(c2ncnc3c2cnn3-c2ccccc2)CC1 | -10% | -7%
Cc1cccc(NC(=O)C2CCCN2C(=O)OCc2ccccc2)c1 (configuration not stated) | -10% | i
COc1ccc(-c2cc(C(=O)O)nc3ccc4ccccc4c23)cc1OC | -13% | 0%
Cc1ccccc1Nc1nc(=O)c2cc([N+](=O)[O-])ccc2s1 | -13% | -20%
O=S(=O)(NCC(c1cccnc1)N1CCN(c2ccccc2F)CC1)c1cccs1 (configuration not stated) | -9% | -17%
CCN(CC(=O)Nc1ccc2c(c1)OCCO2)C(=O)CSCC(=O)Nc1ccc(C)cc1 | -13% | -14%
COc1ccc(-n2ncc(C(=O)N3CCN(c4ccccn4)CC3)c2C2CCN(C(=O)OC(C)(C)C)CC2)cc1 | -12% | -14%
O=C(CSc1nnc(-c2ccc(NS(=O)(=O)c3ccccc3)cc2)o1)NCC1CCCO1 (configuration not stated) | -18% | /
O=C(O)COc1ccccc1/C=N/NC(=O)CSc1nc2ccccc2c(=O)n1-c1ccccc1 | -3% | 19%
CCn1cc(Cl)c(C(=O)Nc2cc(C(=O)OC)cc(C(=O)OC)c2)n1 | -7% | -3%
C#CCOCCOCCOCCNc1nc(N2CCN(C(=O)[C@H](CCCCN)n3cc(CCC(=O)O)nn3)CC2)nc(N2CCN(C(=O)[C@H](CCCCN)n3cc(CC(C)O)nn3)CC2)n1 (some centres not stated) | -7% | i
Cc1ccccc1OCC1CN(CN2CCOCC2)C(=O)O1 (configuration not stated) | -8% | -17%
O=C(Nc1nc2ccccc2s1)c1cc(-c2ccccc2)nn1-c1ccccc1 | 13% | ?
Cc1ccsc1/C=N/NC(=O)c1cc(-c2ccncc2)nc2ccccc12 | ? | ?
CC(=O)N1CCc2cc(CNC(=O)Nc3cc(Cl)ccc3C)ccc21 | -4%[7.34 µM] | -10%[7.34 µM]
Cc1nn(-c2ccccc2)c(C)c1NC(=O)COC(=O)c1cc([N+](=O)[O-])ccc1NCCO | -4% | -10%

Compound profiles, from the list above. Order of screens: Vaccinia Venus | Vaccinia mCherry
Cc1ccc(S(=O)(=O)NC(=O)COc2ccccc2C(N)=O)cc1 reads -5% | -25%
CC(C)C(=O)N1CCC2(CC1)Oc1ccc(Cl)cc1C(=O)C21CC(c2cccnc2)=NO1 (configuration not stated) reads -15% | -5%
COc1ccc2[nH]c3c(N4CCC(O)(c5cccc(C(F)(F)F)c5)CC4)ncnc3c2c1 reads ? | i
CCc1ccc(-c2cc(C)no2)cc1S(=O)(=O)N1CCOc2ccccc21 reads -12% | i
NC(=O)C1CCN(c2ncnc3c2cnn3-c2ccccc2)CC1 reads -10% | -7%

Screening results: PubChem BioAssay, National Center for Advancing Translational Sciences (NCATS)
